From PubChem
Vaccinia pol inh = inhibitors of vaccinia virus processive DNA synthesis (E9 polymerase); 0.94% of 46,000 active; AID 493162; normalized absorbance, % (concentration not given with the values); in vitro processive DNA synthesis, absorbance read-out; stronger effect = lower value; some inactives read as strong as hits;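 active means replicate mean up to 90% and picked by the depositor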;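 further: 100% = median of the test wells of a plate; 100 nL library stock went into each well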
An asterisk follows results filed as active.

| canonical_smiles | Vaccinia pol inh |
| --- | --- |
| CCOC(=O)c1cnn(CCOC(=O)c2ccc(C)cc2)c1NC(=O)c1ccc(C)cc1 | 105 |
| O=C(NCCc1ccccc1)C1=CCN(S(=O)(=O)c2ccccc2)CC1 | 101 |
| Cc1cc(Oc2ccc(C(F)(F)F)cc2-n2cccc2)cc(C)c1Cl | 106 |
| CC(C)c1ccc(C2C3CCc4ccccc4C3=NN2CCO)cc1 (stereo not given) | 99 |
| C=CCNc1ncnc2c1sc1nc(CCCC)c3c(c12)CCCC3 | 95 |
| O=C(NCCCN1CCOCC1)NC1(c2ccccc2)CC1 | 100 |
| N[C@H](Cc1ccccc1)C(=O)O | 100 |
| COc1ccc(C(C#N)N2N=C(C)CC2(C)C)cc1 (stereo not given) | 100 |
| S=C(S)OC1CC2CC1C1CCCC21 (stereo not given) | 101 |
| CCC1=Nc2cc(C(=O)NCCN3CCCCCC3)ccc2Sc2ccc(C)cc21 | 98 |
| CCC(C)NC(=O)C1CCCN1S(=O)(=O)c1ccc2nc(-c3ccccc3)[nH]c2c1 (stereo not given) | 109 |
| COc1cc2c(cc1O)C(C)=NC(C)(C)C2 | 93 |

Compounds above that have nitrogen in an aromatic ring:
| canonical_smiles | Vaccinia pol inh |
| --- | --- |
| CCOC(=O)c1cnn(CCOC(=O)c2ccc(C)cc2)c1NC(=O)c1ccc(C)cc1 | 105 |
| Cc1cc(Oc2ccc(C(F)(F)F)cc2-n2cccc2)cc(C)c1Cl | 106 |
| C=CCNc1ncnc2c1sc1nc(CCCC)c3c(c12)CCCC3 | 95 |
| CCC(C)NC(=O)C1CCCN1S(=O)(=O)c1ccc2nc(-c3ccccc3)[nH]c2c1 (stereo not given) | 109 |

The listing continues.
| canonical_smiles | Vaccinia pol inh |
| --- | --- |
| CCCn1cc(SCC(=O)N2N=C(c3cccs3)CC2c2ccc(OC)cc2)c2ccccc21 (stereo not given) | 94 |
| OC(CN1CCN(c2cccc(Cl)c2)CC1)Cn1c2ccccc2c2ccccc21 (stereo not given) | 100 |
| CCCN(CCC)C(=O)c1ccccc1Cl | 101 |
| CCC1CCCCN1c1nc(C)cc(C)n1 (stereo not given) | 98 |
| CSc1oc(-c2cccs2)nc1S(=O)(=O)c1ccccc1 | 100 |
| O=C(CSc1ccc2nnc(-c3ccccc3)n2n1)Nc1ccccc1 | 101 |
| O=C(Cc1ccccc1)Nc1nnc(-c2ccccc2Cl)s1 | 100 |
| CCN(CC)C(=O)c1cc2c(=O)c3cc(Cl)ccc3oc2nc1C | 100 |
| CC(=O)SC1CCS(=O)(=O)C1 (stereo not given) | 97 |
| C[C@H](NC(=O)Cc1ncc(C(F)(F)F)cc1Cl)c1ccccc1 | 101 |
| CC(C)(C)CC(C)(C)NC(=O)c1cccc(N=Cc2ccccc2O)c1 | 102 |
| CC(C)(C)c1ccc(C(O)CCCN2CCC(C(O)(c3ccccc3)c3ccccc3)CC2)cc1 (stereo not given) | 100 |
| Fc1cccc(Cl)c1CSc1ncnc2ccccc12 | 93 |
| Cc1ccc2oc(C(=O)Nc3ccc(C)c(C)c3)cc(=O)c2c1 | 98 |
| CCOC(=O)Cn1c2c(c(C(F)(F)F)cc1=O)C(=O)CCC2 | 96 |
| CCOc1ccc(C(=O)Nc2ccc(NC(=O)c3ccccc3)c(C)c2)cc1Br | 100 |
| C=CCN1C(=O)/C(=C2/C(=O)N(CC(=O)Nc3ccccc3Cl)c3ccccc32)SC1=S | 104 |
| CCOc1cccc(C(=O)Nc2cc3nn(-c4ccccc4)nc3cc2C)c1 | 100 |
| CCNC(C)Cc1cccc(C(F)(F)F)c1 (stereo not given) | 99 |
| O=C1C(C=NCCc2c[nH]c3ccccc23)=C(O)c2ccccc21 | 99 |
| O=C(c1cccc2c1C(=O)N(Cc1cccnc1)C2)N1CCN(Cc2ccccc2)CC1 | 98 |
| COCCN1C(=O)c2oc3ccccc3c(=O)c2C1c1ccc(C)cc1 (stereo not given) | 107 |
| COc1cccc2cc(C(=O)NCCc3ccccc3)c(=O)oc12 | 100 |
| Brc1ccc2c(c1)CN(C1CCCCC1)CO2 | 98 |
| Cc1[nH]c(=O)[nH]c(=O)c1S(=O)(=O)N1CCCC(C(=O)NCc2ccc3c(c2)OCO3)C1 (stereo not given) | 95 |
| CC(C)COc1ccccc1O | 99 |
| OC(CN1CCCN(c2nc(-c3ccccc3)ns2)CC1)C(F)(F)F (stereo not given) | 104 |
| NCc1cn2ccccc2n1 | 88 |
| CC1CCC(NC(=O)N(CCCl)N=O)CC1 (stereo not given) | 91 |
| O=C(OCc1ccco1)c1cc2cc(Br)ccc2oc1=O | 102 |
| CCC(=O)N1CCN(c2ccc(NC(=O)COc3ccc(Cl)cc3Cl)cc2)CC1 | 89 |
| Oc1cc2c(cc1C(c1ccc(C(F)(F)F)cc1)N1CCCC1)OCO2 (stereo not given) | 115 |
| O=S(=O)(CCN(Cc1cccs1)C(=S)Nc1cccc(F)c1)c1ccc(Cl)cc1 | 105 |
| CC1CCC(C(C)C)C(OCC(O)CN2CC(C)OC(C)C2)C1 (stereo not given) | 101 |
| CN(C)Cc1ccc(O)c(CN(C)C)n1 | 100 |
| COc1cc(Nc2nc(SCC(=O)c3ccc(O)c(O)c3)nc3ccccc23)cc(OC)c1 | 104 |
| c1coc(C2Nc3ccccc3-c3nc4ccccc4n32)c1 (stereo not given) | 101 |
| O=C1CCC(=O)N1CN(C(=O)C(F)(F)F)c1ccccc1 | 100 |
| COc1ccc(Cn2c(C)ccc2C)cc1 | 98 |
| CCC(CC)C(=O)Nc1c2c(nn1-c1ccc(Cl)cc1)CSC2 | 102 |
| COc1ccc(CSc2nnc3c4c5c(sc4nc(SC)n23)COC(C)(C)C5)cc1 | 100 |
| COc1ccccc1NC(=O)c1ccc(-n2cccn2)nc1 | 98 |
| Cc1ccc(C=Nc2cccc3ccccc23)cc1 | 100 |
| O=C(Nc1ccccc1F)OC1CN2CCC1CC2 (stereo not given) | 95 |
| COc1ccc(/C(O)=C(\C#N)c2nc3ccccc3[nH]2)cc1 | 101 |
| Cn1nnnc1SCC(=O)NCc1cccc(C(=O)O)c1 | 100 |
| O=C1NC(=S)N/C1=C\c1ccco1 | 100 |
| CC1CCCN(C(=O)C23CCC(C)(C(=O)C2)C3(C)C)C1 (stereo not given) | 94 |

Among those listed so far, these contain bromine:
| canonical_smiles | Vaccinia pol inh |
| --- | --- |
| CCOc1ccc(C(=O)Nc2ccc(NC(=O)c3ccccc3)c(C)c2)cc1Br | 100 |
| Brc1ccc2c(c1)CN(C1CCCCC1)CO2 | 98 |
| O=C(OCc1ccco1)c1cc2cc(Br)ccc2oc1=O | 102 |

More compounds:
| canonical_smiles | Vaccinia pol inh |
| --- | --- |
| O=C(COc1ccc2c(c1)C(=O)CC1(CCCCC1)O2)NCc1cccnc1 | 101 |
| COC(=O)c1ccc(S(=O)(=O)N2CCc3ccccc32)n1C | 110 |
| COc1cc(CCNc2ccc3nnc(-c4ccccc4)n3n2)cc(OC)c1OC | 94 |
| CC(C)COc1ccc(/C=C2/SC(=Nc3ccccc3)N(N(C)C)C2=O)cc1 | 100 |
| O=C1Nc2ccc(Cl)cc2S/C1=C/Nc1ccccc1 | 133 |
| CC1CCN(C(=O)Cn2cc(SCC(=O)N3CCc4ccccc43)c3ccccc32)CC1 | 101 |
| Cc1ccc(S(=O)(=O)NC(=O)Nc2scc(C)c2C(=O)c2ccccc2)cc1 | 83 |
| Cc1cc(C)c(C#N)c(N2CCN(c3ccccc3)CC2)n1 | 78 |
| COc1ccc2c(C)nc(/N=C(\N)NC(C)=O)nc2c1 | 54* |
| C(=Nc1ccc(-c2nnc3n2CCCCC3)cc1)c1ccsc1 | 106 |
| C=C1C(=O)OC2C[C@@H](C)[C@@H]3C=CC(=O)[C@@]3(C)[C@@H](O)C12 (stereo not given in full) | 100 |
| FC(F)(F)c1cccc(NC(=S)Nc2cc(-c3cccs3)[nH]n2)c1 | 105 |
| CCOC(=O)C1CCN(C(=O)c2ccccc2NC(=O)c2cccc(F)c2)CC1 | 98 |
| CCOC(=O)c1csc(NC(C)=O)n1 | 101 |
| Cc1ccc(CSCC2COC(c3cccs3)=N2)cc1 (stereo not given) | 102 |
| O=C1NC(c2ccc(Br)cc2)Oc2ccccc21 (stereo not given) | 100 |
| O=C(COC(=O)c1ccc(Br)o1)Nc1cc(C(F)(F)F)ccc1Cl | 104 |
| CCn1cc(CN(Cc2ccccc2)C(=S)Nc2ccc(Cl)cc2OC)c2ccccc21 | 100 |
| CCOc1ccc(S(=O)(=O)NCCO)cc1 | 98 |
| O=C(O)C1CNC(c2ccccc2)S1 (stereo not given) | 103 |
| COC(=O)CNc1nc(Cl)nc(N2CCC(C)CC2)n1 | 100 |
| Fc1ccc(NC(=S)NCCCN2CCCCCC2)cc1Cl | 94 |
| CCOc1ccc(NC(=O)c2cc(-c3ccc(F)cc3)[nH]c2C)cc1 | 72 |
| CC(NC(=O)c1ccncc1)c1ccccc1 (stereo not given) | 98 |

Of the compounds above, these have a tert-butyl group.
| canonical_smiles | Vaccinia pol inh |
| --- | --- |
| CC(C)(C)CC(C)(C)NC(=O)c1cccc(N=Cc2ccccc2O)c1 | 102 |
| CC(C)(C)c1ccc(C(O)CCCN2CCC(C(O)(c3ccccc3)c3ccccc3)CC2)cc1 (stereo not given) | 100 |

Next structures.
| canonical_smiles | Vaccinia pol inh |
| --- | --- |
| O=c1nccc(C(F)(F)F)[nH]1 | 92 |
| COc1ccc(NC(=O)C2C(c3ccccc3)=C2c2ccccc2)cc1 | 97 |
| N#Cc1ccc(CN2C(=O)CCC2=O)cc1 | 100 |
| COC(=O)c1ccc(/C=C2\SC(=S)N(c3cccc(OC)c3)C2=O)cc1 | 101 |
| Cc1nc2ccccc2c(=O)n1NCc1cccs1 | 99 |
| CC(C)NCCn1c(-c2ccc(Br)cc2)cn2c3ccccc3nc12 | 96 |
| CO[C@@]1(NC(=O)CSCC#N)C(=O)N2C(C(=O)O)=C(CSc3nnnn3C)CSC21 (stereo not given in full) | 99 |
| CCc1nc2oc(C(=O)c3ccccc3)c(N)c2c2c1COC(C)(C)C2 | 100 |
| Cc1nc2cc3ccccc3cc2c(=O)n1CCCNC1CCCCC1 | 87 |
| COC(=O)c1sc(NC(=O)c2ccccc2)c(C(=O)OC)c1C | 100 |
| O=C(CSCC(=O)N1CCCC1)Nc1nc(-c2ccccc2)cs1 | 99 |
| Oc1ccc(CNc2cccc(Cl)c2)c2cccnc12 | 103 |
| CCOc1ccccc1N(C)C(=O)c1cc(S(=O)(=O)N(CC)c2ccccc2)ccc1F | 108 |
| O=CN1CCN(CC(O)Cn2c3ccccc3c3ccccc32)CC1 (stereo not given) | 100 |
| Cc1ccc(-c2ccc(CCC(=O)O)n2-c2cc(C)cc(C)c2)cc1 | 100 |
| COc1ccc(Cc2nn3c(Cc4ccccc4)nnc3s2)cc1 | 106 |
| CCOc1ccc(S(=O)(=O)NCc2ccncc2)cc1 | 97 |
| CN(C)c1ccc(/C=C/C=C2/C(=O)NC(=O)N(c3ccccc3)C2=O)cc1 | 95 |
| CCSc1nc2sc3c(c2c(=O)n1CC)CCc1ccccc1-3 | 100 |
| O=C(O)c1ccccc1OCc1ccc2ccccc2n1 | 100 |
| O=C(CCC(=O)c1cccs1)OCc1ccccc1 | 106 |
| O=C1NC(=S)N/C1=C/c1cc2ccccc2nc1N1CCCCC1 | 100 |
| Clc1ccc2sc(Sc3ccccc3)nc2c1 | 104 |
| CN(C)c1ccc(N2CC(=O)SC2=NC#N)cc1 | 100 |
| Cc1cc(=O)n2nc(N(C)CC(=O)N3CCCCC3)sc2n1 | 101 |
| CC(/C=C1\SC(=S)N(CCC(=O)Nc2ccc(O)c(C(=O)O)c2)C1=O)=C\c1ccccc1 | 90 |
| COc1ccc(CNc2ncnc3c2cnn3-c2ccccc2)cc1 | 101 |
| O=C(O)c1cc(Cl)nnc1Cl | 103 |
| CCOC(=O)C(C#N)C1(c2ccccc2OC)CCOC(C)(C)C1 (stereo not given) | 99 |
| O=C(CSc1nc2ccccc2s1)N1CCc2ccccc2C1 | 88 |
| COc1ccc(-c2noc(N3CCN(c4ccc(OC)cc4)CC3)n2)cc1 | 102 |
| CC(=O)N=Cc1c(C)c(C#N)c(=O)n(C)c1O | 100 |
| Cc1sc(NC(=O)c2ccco2)c(CN2CCN(c3ccccn3)CC2)c1C | 95 |
| CCCN(CCC)C(=O)Cn1ccc(=N)c2ccccc21 | 99 |
| CC(=O)Nc1c(C(C)C)cccc1C(C)C | 100 |
| O=C(Sc1ccc(C(F)(F)F)cn1)c1csc(C2COc3ccccc3O2)n1 (stereo not given) | 102 |
| C=C(C)COc1ccc2c3c(c(=O)oc2c1)CCC3 | 101 |
| O=C(Nc1cccc(C(F)(F)F)c1)c1cc(-c2ccccc2)n[nH]1 | 106 |
| CN1CCCc2cc(/C=C3\CC/C(=C/c4ccc5c(c4)N(C)CCC5)C3=O)ccc21 | 104 |
| O=C(O)c1ccccc1C(=O)Nc1ccc(/C=C/c2ccccc2)cc1 | 97 |
| CCN1C(=O)CS/C1=N\N1CCOCC1 | 101 |
| C=CCNS(=O)(=O)c1cccc2nonc12 | 100 |
| Cc1cccc(N(C)C(=O)Cn2ncc3c2-c2ccccc2OC3)c1 | 96 |
| COc1cc(/C=N\n2cn[nH]c2=S)cc(OC)c1OC | 110 |
| CSc1nnnn1-c1ccccc1 | 91 |
| COc1ccc(NC(=O)c2c(Cl)nc3ccccn23)cc1 | 99 |
| c1cn(-c2ccc(N3CCCCC3)nn2)cn1 | 104 |
| CCCN1C(=O)C(O)(CC(=O)c2ccc(OC)cc2OC)c2cc(Br)ccc21 (stereo not given) | 107 |
| C[N+]1(CC(O)C[N+]2(C)CCCCC2)CCCCC1 | 100 |
| CCOC(=O)c1ccc(Oc2cc(C)nc(SC)n2)cc1 | 100 |
| CC(C)NC(=O)C1=CC(c2ccco2)=NS(=O)(=O)N1C | 96 |
| CC1Cc2ccccc2N1S(=O)(=O)c1cccc(C(=O)NC2CC2)c1 (stereo not given) | 104 |
| COc1ccc(C2CC(=O)C3=C(C2)NC(=O)CC3c2ccccc2)cc1 (stereo not given) | 105 |
| Cc1nc2n(Cc3ccccc3)c3ccccc3n2c1C(=S)Nc1ccccc1 | 100 |
| CCOC(=O)c1c(C)[nH]c(C(=O)CSc2ccc(Cl)cc2)c1C | 99 |
| Cc1ccc(S(=O)(=O)c2nc(NN)sc2Cl)cc1 | 112 |
| CC(C)c1ccc(C(=O)OCC(=O)N2CCCCC2)cc1 | 101 |
| COc1ccccc1CNC(=O)COc1cc(C)nn1-c1ccc(Cl)cc1 | 101 |

Some of the compounds tested; rates above refer to the full screens.
